Bioassay records (PubChem)
SARS PLP yeast = inhibitors of SARS-CoV papain-like protease in yeast | AID 485353 | S. cerevisiae expressing SARS-CoV PLpro, growth rescue; control for the full effect not named in the record | actives 0.19% (n = 330,000) | Potency, µM (series often up to 32.9 µM), inactives show top-dose activity, positive = growth rescue; further: 0% is about no effect; nearly all actives have a fitted effect of over 55% in size; growth read by luminescence after 48 h
RE007 growth inh = less growth of the S. pombe RE007 Vpr strain; S. pombe RE007 Vpr strain, BacTiter-Glo ATP luminescence, 24 h; control for the full effect not named in the record; Potency, µM (highest dose often 92.2 µM), without a hit: top-dose activity change, negative = less growth; actives 0.21% (n = 360,000); AID 651644; active = well fitted falling curve with a large enough effect; inconclusive = small, poorly fitted or top-dose-only effect; inactive = no such curve, though single readings can be large or run the other way;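 further: on the % scale 0 is the no-effect control and ±100 the full control effect; nearly all actives have a fitted effect of over 50% in size; the assay follows cell death caused by Vpr and the record does not say whether a fall means rescue or toxicity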
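Fission yeast RE007 carrying one integrated HIV-1 vpr copy, seeded at OD 0.01 in PMG+AL medium with 23 nL pinned compound. Grown 24 h at 30 degrees; viability read by BacTiter-Glo luminescence after 5 min.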
Lassa entry inh = inhibitors of Lassa virus binding or cell entry; Potency, µM (doses to about 37.9 µM), for the others: top-dose activity change, negative = inhibition, usual class: inhibitors; AID 540256; actives 1.2% (n = 300,000); Lassa virus pseudotype entry inhibition, cell reporter; control for the full effect not named in the record; active means well fitted inhibition curve with a large enough effect; inconclusive means small, poorly fitted or top-dose-only effect, or effect the other way; inactive means flat fitted curve, though single readings scatter; tested in HEK293 cells; further: on the % scale 0 is the no-effect control and ±100 the full control effect; nearly all actives have a fitted effect of over 50% in size; luciferase read-out
StopGo reporter = FMDV 2A StopGo reporter, luciferase signal. Potency, µM (top dose mostly 57.9 µM), for inactives: top-dose signal change, negative = less light. AID 1159524. human cells with a luciferase reporter of 2A StopGo recoding; control for the full effect not named in the record. actives 1.2% (n = 410,000); active = well fitted falling curve with a large enough effect; inconclusive = small, poorly fitted or top-dose-only effect; inactive = no such curve, though single readings can be large or run the other way; tested in HEK293T cells; further: on the % scale 0 is the no-effect control and ±100 the full control effect; nearly all actives have a fitted effect of over 45% in size; luciferase light after 4 h
Marburg entry inh = Marburg virus entry inhibition | actives 1.8% (n = 300,000) | Potency, µM (titrated, usually from 37.8 µM), for the others: top-dose activity change, negative = inhibition, actives largely listed as inhibitors | Marburg virus pseudotyped entry inhibition, cell reporter; control for the full effect not named in the record; about a third of the inactives were read at about 46 µM; active = well fitted inhibition curve with a large enough effect; inconclusive = small, poorly fitted or top-dose-only effect, or effect the other way; inactive = flat fitted curve, though single readings scatter; tested in HEK293 cells; about a fifth of its hits are not listed in these tables; further: on the % scale 0 is the no-effect control and ±100 the full control effect; luciferase read-out
Cruzain noTriton = inhibitors of Trypanosoma cruzi cruzain without detergent; P25779; purified cruzain, Z-FR-AMC fluorescence, no detergent; Potency, µM, without a hit: max response, negative = inhibition, usual class: inhibitors; actives 2.3% (n = 200,000); AID 1476; active means well fitted curve in the direction sought with a large enough effect; inconclusive means small, poorly fitted or top-dose-only effect, or another doubt; inactive means no such curve, though single readings can be large; an effect the other way counts as inactive or inconclusive;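 further: plate controls were enzyme without inhibitor for no effect and buffer without enzyme for full effect; nearly all actives have a fitted effect of over 40% in size; top concentration of the series not given in the record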
Target sequence (P25779 123-467 limits assumed): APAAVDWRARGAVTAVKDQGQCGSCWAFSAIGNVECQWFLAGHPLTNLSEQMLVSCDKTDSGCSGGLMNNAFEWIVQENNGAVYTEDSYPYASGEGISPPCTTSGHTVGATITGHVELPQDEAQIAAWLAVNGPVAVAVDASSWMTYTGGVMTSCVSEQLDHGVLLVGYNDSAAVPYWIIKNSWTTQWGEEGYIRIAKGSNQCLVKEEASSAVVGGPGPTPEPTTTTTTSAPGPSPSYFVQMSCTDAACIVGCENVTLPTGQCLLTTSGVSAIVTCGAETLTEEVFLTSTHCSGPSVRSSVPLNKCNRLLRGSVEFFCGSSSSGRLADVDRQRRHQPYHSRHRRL
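Detergent-free condition (0.00005% Triton X-100) in acetate buffer pH 5.5 with DTT. 1.5 nM enzyme and compound were pre-mixed 15 min, then 2 uM Z-FR-AMC substrate added; reaction progress from fluorescence change between first and third reads (60 s).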
NS1 function inh = blocks influenza NS1 protein function. S. cerevisiae slowed by influenza A NS1, growth recovery by OD600. Potency, µM (doses to about 46.1 µM), for inactives: top-dose activity, positive = more growth. actives 0.4% (n = 270,000); further: actives are rising curves; nearly all actives have a fitted effect of over 50% in size
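Recovery from NS1-induced slow growth read by OD600 in budding yeast switched to galactose assay medium (pH 6.0, -URA) at 1:100 dilution. Compound 23 nl per well; the matching strain lacking NS1 serves as control.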
Cruzain Triton = blocks cruzain activity in presence of Triton detergent; P25779; purified cruzain, Z-FR-AMC fluorescence, 0.01% Triton; Potency, µM, for inactives: max response, negative = inhibition, most hits filed as inhibitors; actives 0.43% (n = 200,000); AID 1478; active means well fitted curve in the direction sought with a large enough effect; inconclusive means small, poorly fitted or top-dose-only effect, or another doubt; inactive means no such curve, though single readings can be large; an effect the other way counts as inactive or inconclusive;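 further: plate controls were neutral wells for no effect and buffer without enzyme for full effect; nearly all actives have a fitted effect of over 40% in size; top concentration of the series not given in the record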
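Purified cruzain (1.5 nM final) was preincubated with compounds for 15 min at room temperature in 100 mM sodium acetate pH 5.5, 5 mM DTT, 0.01% Triton X-100. Reaction started with 2 uM Z-FR-AMC; AMC fluorescence change over 60 s gave activity.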
* hit, by the source's call; ? = inconclusive; . = no result given; & = joins results of further samples; [ ] = remark or other dose. Unless noted, the call rests on the fitted dose curve; in most records, active means well fitted rising curve with a large enough effect; inconclusive means small, poorly fitted or top-dose-only effect; inactive means no such curve, though single readings can be large or run the other way. Potency means the concentration at half of the fitted maximal effect.

SMILES	SARS PLP yeast	RE007 growth inh	Lassa entry inh	StopGo reporter	Marburg entry inh	Cruzain noTriton	NS1 function inh	Cruzain Triton
C/C(=N\NC(=O)c1cccc(S(=O)(=O)N2CCOCC2)c1)c1ccc(OC(F)F)cc1	-5%	-10%	-9%	?	5%	.	.	.
Cc1ccc(C2C(C#N)=C(N)Oc3n[nH]c(C)c32)cc1 (stereo not given)	2%	-18%	5%	?	?	-13%	-31%	0.0%
CC(C)(C)c1ccc(OCC(=O)N(c2ccccn2)C2CCCCC2)cc1	-11%	13%	-26%	?	?	2%	-16%	-6.7%
COC(=O)c1cc(NC(=O)c2ccoc2C)cc(C(=O)OC)c1	24%	-5%	3%	-17%	-29%	-9%	6%	1.7%
Cc1ccc(CNC(=O)CCS(=O)(=O)c2ccc3c(c2)NC(=O)CS3)cc1	3%	-4%	.	-18%	.	.	7%	.
CC(=O)c1cccc(Nc2ncnc3c2cnn3-c2cccc(Cl)c2)c1	.	.	22%[46.1 µM]	-14%	.	-3%	.	0.7%
CN1CCCN(Cc2nc(-c3cccc(C(F)(F)F)c3)no2)CC1	-2%	-5%	2%[46.1 µM]	-6%	4%[46.1 µM]	.	-1%	.
Nc1nc2ccc([N+](=O)[O-])c(N)c2s1	-16%	-8%	-2%	?	0%	-25%	-10%	-8.7%
CCOc1cc(C(=S)N2CCN(C)CC2)ccc1OCC(=O)N1CCOCC1	-7%	5%	?	4%	-7%[46.1 µM]	-13%	-5%	-0.5%
CC(C)CC(=O)Nc1ccnn1C1CCN(C(=O)c2ccccc2F)CC1	.	21%	2%	10%	1%	.	.	.

The last 2 entries of the section above come first, to join the parts:
SMILES	SARS PLP yeast	RE007 growth inh	Lassa entry inh	StopGo reporter	Marburg entry inh	Cruzain noTriton	NS1 function inh	Cruzain Triton
CCOc1cc(C(=S)N2CCN(C)CC2)ccc1OCC(=O)N1CCOCC1	-7%	5%	?	4%	-7%[46.1 µM]	-13%	-5%	-0.5%
CC(C)CC(=O)Nc1ccnn1C1CCN(C(=O)c2ccccc2F)CC1	.	21%	2%	10%	1%	.	.	.
CCOc1ccc(N(CC(=O)N2CCCCCC2)S(=O)(=O)c2ccc(C)cc2)cc1	-16%	-5%	3.5µM*	30%[activator]	-50%	.	-48%	.
CSCC[C@H](NC(=O)OCc1ccccc1)C(=O)O	2%	-5%	1%	-16%	-1%	-1%	4%	-1.5%
CCOc1ccc(C(=O)N/N=C/c2ccc(SC)cc2)cc1	-1%	.	2.8µM*	-16%	7%	-5%	6%	-0.5%
COc1ccc(Br)cc1CC1C(=O)Nc2ccccc21 (stereo not given)	.	.	-2%[46.1 µM]	?	?	-4%	.	-11%
COCCCn1cnnc1SCc1nc2sc(C(C)=O)c(C)c2c(=O)[nH]1	-3%	-8%	.	-12%	.	.	-4%	.
COCCn1nnnc1C(C(C)C)N1CCOCC1 (stereo not given)	-6%	9%	-15%	.	-3%	-10%	-1%	0.6%
COCCC(=O)N1CCC(Oc2ccc(C(=O)N(C)C(C)c3ccon3)cc2)CC1 (stereo not given)	3%	3%	.	9%	.	.	8%	.
C=C(Cl)CSC(=S)N(CC)CC	13%	9%	.	-2%	0%	-4%	.	-1.9%
O=C(c1ccccc1Cl)N(C(=O)c1ccccc1Cl)c1nccc(-c2cccs2)n1	15%	0%	-9%	?	?	?	-3%	1.4%
O=C(CSc1nnc(-c2cccnc2)n1-c1ccc(SC(F)F)cc1)N1CCCc2ccccc21	-2%	8%	-1%	-24%	7%	25%	12%	-5.7%
CC(C(=O)Nc1ccc(S(=O)(=O)N2CCOCC2)cc1)N(c1ccccc1)S(C)(=O)=O (stereo not given)	3%	0%	9%	-26%	18%&18%	-1%	-6%	1.5%
COc1ccc(C(=O)OC2CCN(C)CC2)cc1	-13%	1%	2%	-15%	?	-4%	5%	0.2%
Cn1cc(/C=C/C(=O)N2CCCC(C(=O)c3ccc(C(C)(C)C)cc3)C2)cn1 (stereo not given)	0%	7%	5%[46.1 µM]	6%	11%[46.1 µM]	.	-1%	.
Cc1ccc(Cc2nc(-c3ccccn3)no2)cc1	-4%	-2%	?	15%	-25%	3%	-3%	0.2%
CC(C)(C)OC(=O)N/N=C/c1ccc(Br)cc1	-3%	1%	?	62%[activator]	7%[46.1 µM]	.	.	.
COc1ccc(/C=C2\Sc3ccc(C(=O)NCCCN4CCCC4)cc3N(C)C2=O)cc1OC	-4%	3%	.	2%	.	.	2%	.
COc1ccc(-c2cc(=O)oc3c(C)c(OC(C)C(C)=O)ccc23)cc1 (stereo not given)	-2%	2%	.	-25%	.	.	1%	.
C/C=C/c1ccc(OCCCNC(C)CC)c(OC)c1 (stereo not given)	22µM*	-14%	3%	-8%	?	3%	1%	-2.0%
Cc1cc(N(C)N)nc(NC(=O)NS(=O)(=O)c2ccccc2Cl)n1	0%	6%	-11%	-8%	8%[46.1 µM]	.	10%	.
Cc1ccc(COc2ccsc2-c2n[nH]c(=S)n2C)cc1	4%	0%[3.69 µM]	6%	-1%	26%	8%	-4%	-0.2%
Cc1ccccc1NS(=O)(=O)c1ccc(C(=O)NCC(c2ccco2)N(C)C)cc1 (stereo not given)	-2%	12%	-1%	-9%	-18%	.	.	.
CC(=O)c1sc(NC(=O)COc2ccc(C)c(C)c2)nc1C	19%	12%	12%	11%	-8%	7%	-16%	-2.3%
Cc1ccc(CNC(=O)C2CCCN(c3nc4ccccc4n4cccc34)C2)cc1 (stereo not given)	.	.	2%[46.1 µM]	-8%	.	9%	.	-2.3%
Nn1cnnc1SCC(=O)Nc1ccc(C2CCCCC2)cc1	4%	-18%	0%	.	9%&9%	24%	-15%	3.2%
Cc1ccc(S(=O)(=O)N[C@H](C(=O)OCC(=O)NC(=O)Nc2ccc3c(c2)OCCO3)C(C)C)cc1	12%	-5%	?	0%	21%	-10%	7%	-14%
COc1cc2c(cc1OC)C(c1ccc3c(c1)OCO3)CC(=O)N2 (stereo not given)	0%	4%	?	-3%	0%	1%	0%	1.1%
CC(C)NC(=O)CSc1cn(CC(=O)N2CCCCCC2)c2ccccc12	.	.	-2%[46.1 µM]	5%	.	-14%	.	-3.5%
CCOc1cc(C2C(C#N)=C(N)Oc3n[nH]c(-c4ccccc4)c32)ccc1O (stereo not given)	3%	3%	7%	-22%	16%	-8%	-5%	-7.2%
Cc1cc2c(C)ccc(C)c2nc1SCC(=O)c1cccs1	2%	3%[3.69 µM]	7%	-22%	-5%	-8%	8%	-0.1%
COC(=O)c1ccccc1Sc1c(/C=N/OC(=O)c2ccccc2)c(C(F)(F)F)nn1C	3%	6%	0%	0%	-4%	7%	2%	-0.3%
COc1ccc(/C=C2\C(=O)NC(=O)N(CCC3=CCCCC3)C2=O)c(OC)c1	-2%	-16%	.	-20%	.	10%	30%	-2.8%
Cc1ccc(Nc2nnc(-c3ccc(C)c(S(=O)(=O)NCc4nc5ccccc5[nH]4)c3)c3ccccc23)cc1	.	.	?	47%[activator]	?	?	.	-6.3%
O=C(O)C(Cc1ccccc1)N1C(=O)CCC1=O (stereo not given)	0%	-6%	11%	29%	2%[46.1 µM]	.	-1%	.
O=C(O)Cc1ccc2[nH]c3ccc(CC(=O)O)cc3c2c1	27%	9%	-2%	10%	1%	3%	?	-1.0%
C=CCNc1nc(N)c([N+](=O)[O-])c(NCCO)n1	0%	-2%	2%	-1%	-16%	.	9%	.
CCc1cccc(NC(=O)COC(=O)c2cc(=O)c3ccccc3o2)c1	-5%	11%	4%	8%	1%	.	.	.
O=C(CN1CCN(Cc2ccccc2Cl)CC1)N/N=C/C=C/c1ccccc1[N+](=O)[O-]	11%	-4%	-15%	0%	-5%	-7%	-11%	-6.0%
C#CCN(C)Cc1ccccc1	1%	5%	11%&4%	-29%	?	-1%&4%&4%	1%&-3%	-2.5%&4.6%&-0.7%
CCC(C)NC(=O)c1cn(-c2cccc(OC)c2)c(=O)c2ccccc12 (stereo not given)	2%	14%	.	-9%	.	.	-4%	.
CCOC(=O)Cc1csc(NC(=O)COc2ccc3ccccc3c2)n1	6%	?	?	-24%	-8%	5%	-3%	-3.5%
Cc1ccccc1C(=O)N1CCCN(C(=O)c2ccccc2C)CC1	-1%	7%	-22%	-15%	16%	0%	-9%	5.5%
COc1ccc(NC(=O)CCCn2c(=O)c3sccc3n(Cc3ccccc3C)c2=O)cc1	-1%	35%	?	-8%	?	-3%	-2%	-5.0%
Cc1ccc(CNC(=O)c2sc3nc4n(c(=O)c3c2C)CCCC4)cc1	.	.	?	14%	.	-5%	.	-6.4%
CCc1ccc(C(C(=O)NC2CCCC2)N(Cc2cccnc2)C(=O)c2csnn2)cc1 (stereo not given)	1%	-7%	-21%[46.1 µM]	-6%	-27%[46.1 µM]	.	-21%	.
C/C(=N/NC(=O)c1cnccn1)c1cccs1	-7%	4%	-1%	7%	?	-1%	-8%	-3.4%
CCOc1cccc(C2/C(=C(\O)c3ccc4c(c3)OCCO4)C(=O)C(=O)N2Cc2ccncc2)c1 (stereo not given)	5%	-17%	6%[46.1 µM]	23%	21%[46.1 µM]	.	-5%	.
O=C(O)c1nnn(-c2cccc(C(F)(F)F)c2)c1-c1ccccc1	2%	5%	.	-6%	.	.	-3%	.
COc1ccc(C(CNS(=O)(=O)c2ccc(NC(C)=O)c(OC)c2)N2CCCC2)cc1 (stereo not given)	-2%	-11%	1%	7%	18%	.	.	.
Cc1ccc(S(=O)(=O)NCCC(=O)O)cc1	13%	2%	27%	7%	-1%	-6%	6%	2.7%
CCOc1ccc(C(C)=O)cc1N1C(=O)C2C3C=CC(C3)C2C1=O (stereo not given)	-5%	2%	8%	17%	8%	15%	1%	-7.1%
CN(c1ccccc1C(=O)N1CCOCC1)S(C)(=O)=O	.	1%	1%	-4%	-21%	-5%	9%	0.4%
CCN(C(=O)c1cnc(OC)cc1C(F)(F)F)c1ccc(Cl)cc1Cl	-1%	5%	?	-24%	?	.	-7%	.

Compounds as they come (roughly 4.5% active in at least one column).
